# Bioassay records deposited in PubChem by National Center for Advancing Translational Sciences (NCATS).
# miR-21 reporter – raises the signal of a miR-21 reporter | 340,000 tested, under 10 active | Potency, µM (series often up to 38.3 µM), inactives show at the top dose reporter change, positive = more light | HeLa miR-21 FLuc reporter, luciferase, 48 h | AID 2288; active = well fitted rising curve with a large enough effect; inconclusive = small, poorly fitted or top-dose-only effect; inactive = no such curve, though single readings can be large or run the other way;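 note: % of control where 0% means no effect; miR-21 action dims this reporter so a rising signal means less miR-21 action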
#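 HeLa cells stably expressing CMV-driven firefly luciferase with a downstream miR-21 binding sequence, endogenously expressing miR-21, were treated with titrations (up to about 40uM final) for 48 hours at 37 degree Celsius. Luciferase luminescence was read after lysis.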
# Rango complex inh – prevents formation of the Rango-importin beta complex. Q14974. Rango CFP/YFP FRET sensor + importin beta, 45 min. Potency, µM (highest dose often 92.2 µM), for the others: top-dose inhibition of complex formation. 340,000 tested, 0.031% active. AID 540263; active = rising FRET ratio curve, often small or poorly fitted; inconclusive = mostly compound fluorescence or quenching in the first reads; inactive = flat curves in all reads;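 note: potency is the fitted concentration of half-maximal effect; 0% = DMSO wells and 100% = buffer wells lacking importin beta; nearly all actives have a fitted effect of over 15% in size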
# Target sequence (Q14974 whole entry, looked up): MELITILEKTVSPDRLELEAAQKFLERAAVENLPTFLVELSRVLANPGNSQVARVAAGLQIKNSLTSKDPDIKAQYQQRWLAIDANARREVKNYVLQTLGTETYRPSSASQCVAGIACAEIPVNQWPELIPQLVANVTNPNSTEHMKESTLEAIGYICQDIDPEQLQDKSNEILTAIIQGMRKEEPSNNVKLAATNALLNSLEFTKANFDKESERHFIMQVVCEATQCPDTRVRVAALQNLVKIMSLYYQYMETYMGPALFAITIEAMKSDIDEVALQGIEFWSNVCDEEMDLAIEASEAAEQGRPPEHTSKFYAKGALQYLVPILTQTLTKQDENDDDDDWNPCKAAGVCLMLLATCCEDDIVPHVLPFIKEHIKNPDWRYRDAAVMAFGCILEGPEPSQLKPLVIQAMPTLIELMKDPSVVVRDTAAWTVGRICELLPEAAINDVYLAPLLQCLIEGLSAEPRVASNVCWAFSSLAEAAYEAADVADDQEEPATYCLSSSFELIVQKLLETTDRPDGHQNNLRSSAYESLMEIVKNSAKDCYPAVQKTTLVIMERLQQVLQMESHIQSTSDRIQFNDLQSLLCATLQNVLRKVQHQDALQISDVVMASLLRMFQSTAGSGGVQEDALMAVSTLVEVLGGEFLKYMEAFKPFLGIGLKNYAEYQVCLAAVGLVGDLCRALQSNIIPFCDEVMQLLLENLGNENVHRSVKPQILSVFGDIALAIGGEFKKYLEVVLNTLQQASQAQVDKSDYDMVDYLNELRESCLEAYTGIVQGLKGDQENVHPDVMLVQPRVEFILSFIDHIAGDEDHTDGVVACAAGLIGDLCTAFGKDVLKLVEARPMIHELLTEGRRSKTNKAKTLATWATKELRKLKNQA
#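 Inhibition scored from the CFP 486 nm/YFP 530 nm FRET ratio 45 min after adding 0.125 microM importin beta to 50 nM Rango biosensor preincubated 5 min with compound (room temperature, PBS with DTT, Tween-20, BSA). No-importin wells as positive control.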
# Rango dissoc inh – inhibitors of RanGTP-induced Rango-importin beta complex dissociation. Biochemical FRET Rango-importin beta, RanGTP-induced dissociation. Potency, µM (titrated, usually from 46.1 µM), for inactives: top-dose activity change, negative = inhibition. AID 540253. 340,000 tested, 0.071% active. O95149+P62826; active means falling FRET ratio curve, often poorly fitted, with flat reads before Ran was added; inconclusive means other falling curves, or compound fluorescence or quenching; inactive means flat or rising ratio curve;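 note: potency is the fitted concentration of half-maximal effect; % of control where 0% means no effect; nearly all actives have a fitted effect of over 45% in size; -100% = wells without RanGTP and RCC1; the record marks most hits as doubtful in a second field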
#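 Compounds preincubate 5 min with complex of recombinant Rango and importin beta in PBS with 1 mM DTT. Ran (0.6 uM) loaded with 2 mM GTP plus 0.2 uM RCC1 starts dissociation; FRET is recorded 45 min later.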
# GLA inh pH 4.5 – blocks human alpha-galactosidase A at pH 4.5 | P06280 | purified enzyme, 4-MU-alpha-Gal fluorescence, pH 4.5 | activity change, negative = inhibition, % at 105 µM | 230,000 tested, under 10 active; inconclusive = small, poorly fitted or top-dose-only inhibition, or a rising curve; inactive = flat fitted curve, though single readings scatter; no compound was filed as active;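 note: 0% = full activity with enzyme and -100% = basal without enzyme; dose as in the result columns while the protocol names 77 µM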
# The depositor's hits bear a star; ? = inconclusive; . = no result given.
# Order of results – Rango dissoc inh | GLA inh pH 4.5 | Rango complex inh | miR-21 reporter
- c1ccc2nc(SCc3cn4ccccc4n3)cnc2c1
  -3.6% | 2.0 | -4.6% | -62.9%
- CN(C)S(=O)(=O)c1cccc(NC(=O)c2cccc(S(=O)(=O)N3CCCCCC3)c2)c1
  0.8% | . | 2.7% | .
- COC(=O)c1c(NC(NC(=O)C(C)(C)C)C(Cl)(Cl)Cl)sc2c1CCC2 (configuration not stated)
  5.0% | 2.1 | 1.8% | 1.0%
- Cc1ccc(OCCN(C)C(=O)CC2C(=O)NCCN2CC(C)(C)C)cc1 (configuration not stated)
  -3.1% | 0.7 | 0.5% | -1.9%
- CN(CC(=O)Nc1c(Cl)cccc1Cl)C(=O)c1ccc(-n2cncn2)c([N+](=O)[O-])c1
  11.3% | . | 0.6% | .
- CC(=O)Nc1sc2c(c1C#N)CCC2
  -10.3% | 2.8 | -3.8% | -9.6%
- O=C(NC1CC1)c1cc(-c2ccc(Br)cc2)nc2ccccc12
  ? | . | 3.5% | .
- Cc1ccc2c(c1)N(C(C)C(=O)NCc1ccccn1)C(=O)CO2 (configuration not stated)
  7.6% | -5.6 | -2.9% | 4.9%
- Cc1sc2ncnc(SCC(=O)N(C)C3CCS(=O)(=O)C3)c2c1C (configuration not stated)
  38.5% | 0.6 | -1.9% | 0.1%
- Cc1cccc(CCNC(=O)CCS(=O)(=O)c2ccc3nc(C)sc3c2)c1
  0.4% | . | -3.1% | -5.0%
- CCOC(=O)c1ccc(N/C(=N\S(=O)(=O)c2ccc(F)cc2F)c2ccccc2)cc1
  -24.8% | -18.4 | 2.8% | -8.6%
- O=C(c1cc2cc(F)ccc2[nH]1)N1CCc2ccccc21
  -6.6% | . | -0.1% | -56.7%
- CCc1nc(C(N)=O)c2[nH]c(=O)n(-c3ccc(OC)cc3OC)c2n1
  33.6% | . | 0.3% | -7.9%
- CC(C)CC(C(=O)OCC(=O)c1c(N)n(C)c(=O)n(C)c1=O)N1C(=O)C2CC=CCC2C1=O (configuration not stated)
  -12.0% | -13.3 | 0.2% | -3.6%
- Cc1cc(OCC(O)CNC(C)c2ccccc2)ccc1C(C)C (configuration not stated)
  -0.3% | . | -0.1% | ?

# Further entries:
# Order of results – Rango dissoc inh | GLA inh pH 4.5 | Rango complex inh | miR-21 reporter
- CC(OC(=O)C1=Cc2ccccc2OC1)C(=O)NCc1ccco1 (configuration not stated)
  6.8% | 0.8 | 0.7% | -1.0%
- O=C(NCCc1cccc(Cl)c1)C1CCC(=O)N(Cc2ccc(Cl)cc2)C1 (configuration not stated)
  -3.7% | . | -0.8% | 8.3%
- NC(=O)CNc1ncc(C(F)(F)F)cc1Cl
  -14.9% | 9.4 | -2.1% | -5.3%
- O=C(CSc1nnc(-c2cccs2)n1-c1cccc(Cl)c1)c1cccc2c1OCCO2
  -0.7% | 3.8 | 4.9% | 0.4%
- O=C(O)C1C2C=CC(C2)C1C(=O)NCCc1ccccc1 (configuration not stated)
  6.6% | -1.0 | -0.2% | -22.6%
- CC1CCN(c2c([N+](=O)[O-])c(=O)oc3ccccc23)CC1
  -3.7% | -5.3 | -0.4% | 5.2%
- CCOc1ccc(CCNC(=O)COC(=O)c2ccco2)cc1OCC
  22.0% | -11.1 | -2.2% | 6.9%
- O=C(CC1SC(=Nc2ccccc2)N(Cc2ccccn2)C1=O)Nc1ccc(Br)cc1 (configuration not stated)
  -0.2% | 9.8 | -2.6% | 21.3%
- CCOC(=O)c1c(C)n(-c2ccc(OC)cc2)c2ccc(O)c(CN(C)C)c12
  0.5% | 1.8 | -0.4% | 16.6%
- CN(Cc1ccccc1)C(=O)C1CCCN1S(=O)(=O)c1ccc2c(c1)n(C)c(=O)c(=O)n2C (configuration not stated)
  -0.5% | 2.8 | 0.8% | 10.5%
- COC(=O)c1c(NC(=O)c2ccc(S(=O)(=O)N3CCOCC3)cc2)sc2c1CCN(C)C2
  -0.7% | -10.4 | ? | -7.4%
- Cc1ccc(NS(=O)(=O)c2ccccc2Cl)c2c1CC(C)(C)O2
  -1.4% | 9.3 | 4.3% | -4.6%
- CCCCc1c(C)c(C#N)c2[nH]c3ccccc3n2c1=O
  -8.2% | ? | 0.4% | 4.0%
- Cc1c(=O)n(OCc2ccccc2)c2ccccc2[n+]1[O-]
  13.4% | 2.5 | 3.5% | -0.4%
- COc1ccc(-c2nnc(SCC(=O)Nc3ccc(Cl)cc3)n2C)cc1
  7.6% | -11.9 | 2.0% | -3.3%

# (more compounds)
# Order of results – Rango dissoc inh | GLA inh pH 4.5 | Rango complex inh | miR-21 reporter
- O=C(NCCc1cccnc1)C1CCC(=O)N(Cc2cccc(C(F)(F)F)c2)C1 (configuration not stated)
  -6.4% | . | 0.3% | -4.7%
- Cc1cccc(OCC(=O)NC(C)C(=O)N/N=C/c2c(OCc3ccccc3)ccc3ccccc23)c1 (configuration not stated)
  0.5% | -1.5 | 0.6% | -23.1%
- Cc1ccc(N/N=C(\C#N)C(=O)c2ccsc2)cc1
  -8.0% | -7.1 | 3.0% | -25.5%
- COc1ccccc1N(C)S(=O)(=O)c1ccc(C(=O)Nc2nnc(C)s2)cc1
  32.5% | . | ? | .
- CCCCN(C)CCCNC(=O)C1CC(=O)N(Cc2ccc(OC)cc2)C1 (configuration not stated)
  -11.8% | 9.5 | 1.0% | -4.1%
- Cc1cccc(OCC(=O)NNC(=O)C2CCN(c3ncnc4sc(C)c(C)c34)CC2)c1
  -17.8% | . | -0.3% | .
- CC1CCC2(CC1)NC(=O)N(NC(=O)CSc1nnc(NC3CC3)s1)C2=O (configuration not stated)
  6.0% | . | -0.1% | .
- COc1cc(OC)c(C(=O)OCC(=O)Nc2cc(C)on2)cc1OC
  29.4% | 6.3 | -0.6% | -2.6%
- CC/C(=N/OC(=O)c1cccc(C)c1)C(=O)c1cccs1
  18.5% | -3.7 | 0.2% | 2.6%
- Cc1nnc2n(c1=O)C(CS(=O)(=O)c1ccc3ccccc3c1)CS2 (configuration not stated)
  6.4% | 8.1 | -3.2% | 2.6%
- Cc1ccc(C(=O)CC(=O)c2ccccc2)cc1
  0.2% | . | 0.0% | -50.2%
- COCCNC(=O)Cn1nc(C(F)(F)F)c(Cl)c1C
  ? | -8.8 | 0.9% | -0.7%
- CCCS(=O)(=O)N1CCCC(C(=O)NCc2ccc3c(c2)OCO3)C1 (configuration not stated)
  0.2% | -3.2 | -1.2% | -10.6%
- CCn1c(C)cc(/C=C2\NC(=O)N(CC(=O)Nc3cccc(C)c3)C2=O)c1C
  -20.7% | -9.8 | -1.8% | -18.5%
- O=C(c1cc2sccc2n1Cc1ccc(F)cc1)N1CCN(c2nc3ccccc3s2)CC1
  -4.8% | 7.2 | 0.0% | 16.8%

# Later entries:
# Order of results – Rango dissoc inh | GLA inh pH 4.5 | Rango complex inh | miR-21 reporter
- CCOc1ccc(NC(=O)C(C)C(Cc2ccc(C)cc2)C(=O)O)cc1 (configuration not stated)
  20.0% | . | 2.5% | -6.7%
- CC1(c2nnc(Cc3ccccc3)o2)CC(c2cccc(F)c2)=NO1 (configuration not stated)
  -7.3% | . | -0.4% | .
- NS(=O)(=O)c1ccc(N=Nc2c(O)[nH]c3ccc(Br)cc23)cc1
  ? | . | ? | -38.2%
- Cc1ccc(C(=O)N/C(=C/c2cccnc2)C(=O)O)cc1
  -7.7% | 2.4 | 0.5% | -3.6%
- COC(=O)c1ccccc1N1C(=O)C2C(C1=O)C1C=CC2C12CC2 (configuration not stated)
  -9.9% | -5.2 | 1.0% | 0.4%
- CCOC(=O)C1=C(C)NC(=O)C(C#N)C1c1ccncc1 (configuration not stated)
  6.6% | -6.6 | -5.5% | 0.5%
- O=C(CCN1CCC2CCC(C2)C1)c1ccccc1 (configuration not stated)
  -8.0% | . | -4.0% | .
- CCOCCCNC(=O)COC(=O)/C=C/c1ccc(S(=O)(=O)N2CCc3ccccc32)cc1
  -0.2% | -3.7 | -3.7% | -2.7%
- O=C(c1ccccc1Cc1ccccc1)N1CCN(S(=O)(=O)c2ccc(F)cc2)CC1
  -6.8% | . | 4.4% | .
- O=C(COC(=O)c1ccccc1-n1cnnn1)c1ccc(F)cc1
  12.5% | . | 2.8% | .
- COCC(=O)Nc1nc2ccccc2s1
  19.6% | 4.6 | 0.0% | -43.4%
- O=C(COC(=O)c1cc(Br)ccc1O)NNC(=O)c1ccc([N+](=O)[O-])cc1
  0.1% | . | -1.0% | .
- CN(C)c1cccc(C(=O)Nc2nc3ccccc3[nH]2)c1
  -7.2% | . | -2.8% | 22.7%
- Cc1cccc(C)c1OCC(=O)Nc1oc(-c2ccccc2)c(-c2ccccc2)c1C#N
  0.6% | . | -0.6% | .
- CCOc1ccccc1NC(=O)CSc1nc2c(c(=O)n(C)c(=O)n2C)n1C
  8.1% | . | 5.6% | 0.5%

# By substructure, the compounds so far with a thiophene ring, fused or not.
# Order of results – Rango dissoc inh | GLA inh pH 4.5 | Rango complex inh | miR-21 reporter
- COC(=O)c1c(NC(NC(=O)C(C)(C)C)C(Cl)(Cl)Cl)sc2c1CCC2 (configuration not stated)
  5.0% | 2.1 | 1.8% | 1.0%
- CC(=O)Nc1sc2c(c1C#N)CCC2
  -10.3% | 2.8 | -3.8% | -9.6%
- Cc1sc2ncnc(SCC(=O)N(C)C3CCS(=O)(=O)C3)c2c1C (configuration not stated)
  38.5% | 0.6 | -1.9% | 0.1%
- O=C(CSc1nnc(-c2cccs2)n1-c1cccc(Cl)c1)c1cccc2c1OCCO2
  -0.7% | 3.8 | 4.9% | 0.4%
- COC(=O)c1c(NC(=O)c2ccc(S(=O)(=O)N3CCOCC3)cc2)sc2c1CCN(C)C2
  -0.7% | -10.4 | ? | -7.4%
- Cc1ccc(N/N=C(\C#N)C(=O)c2ccsc2)cc1
  -8.0% | -7.1 | 3.0% | -25.5%
- Cc1cccc(OCC(=O)NNC(=O)C2CCN(c3ncnc4sc(C)c(C)c34)CC2)c1
  -17.8% | . | -0.3% | .
- CC/C(=N/OC(=O)c1cccc(C)c1)C(=O)c1cccs1
  18.5% | -3.7 | 0.2% | 2.6%
- O=C(c1cc2sccc2n1Cc1ccc(F)cc1)N1CCN(c2nc3ccccc3s2)CC1
  -4.8% | 7.2 | 0.0% | 16.8%

# More compounds:
# Order of results – Rango dissoc inh | GLA inh pH 4.5 | Rango complex inh | miR-21 reporter
- COc1ccc(S(=O)(=O)N(C)C[C@H]2Oc3c(NC(=O)CCC(F)(F)F)cccc3C(=O)N([C@H](C)CO)C[C@@H]2C)cc1
  12.3% | . | 3.2% | .
- O=C1CC(c2ccccc2)CC(=NCCO)/C1=C(\O)CCCN1C(=O)c2ccccc2C1=O (configuration not stated)
  -18.1% | 2.0 | -0.4% | 1.5%
- Cc1ccc(-c2nc(-c3ccccn3)sc2CC(=O)O)cc1
  15.4% | 9.6 | -1.5% | 0.1%
- Cc1cccc(S(=O)Cc2ccc(C(=O)N3CCN(C(=O)c4ccco4)CC3)o2)c1 (configuration not stated)
  -0.6% | . | 2.3% | 3.1%
- O=C(CCN1C(=O)/C(=C/c2ccc(F)cc2)SC1=S)NNC(=O)c1ccncc1
  -13.0% | -6.2 | -1.6% | 2.3%
- COCCn1c(=NC(=O)CCS(=O)(=O)c2ccccc2)sc2ccccc21
  14.4% | . | -6.4% | .
- COC(=O)C(NC(C)=O)(Nc1ccccc1)C(=O)OC
  14.5% | -1.4 | -0.1% | -2.5%
- Cc1ccc(CN(Cc2ccco2)C(=S)NCC(=O)NC2CC2)cc1
  1.0% | -10.6 | -2.8% | 2.0%
- COc1ccc(C(=O)NCCC(=O)N2CCC3(CC2)NCCc2[nH]cnc23)cc1
  ? | . | ? | -3.9%
- Fc1ccccc1COc1cccc2cccnc12
  -0.3% | . | -0.1% | .
- COc1ccc(-c2nc3cc(C)ccn3c2NC(=O)c2c(F)cccc2Cl)cc1
  -0.6% | . | 0.8% | 5.9%
- COc1ccccc1CNCc1ccc(OC)c2ccccc12
  10.9% | . | 3.9% | .

# Reformatted as comma-separated lines: entries from further up.
molecule,Rango dissoc inh,GLA inh pH 4.5,Rango complex inh,miR-21 reporter
COc1ccccc1CNCc1ccc(OC)c2ccccc12,10.9%,.,3.9%,.
Cc1ccc(-c2nc(-c3ccccn3)sc2CC(=O)O)cc1,15.4%,9.6,-1.5%,0.1%

# This is a subset; count on the stated rates, not on these rows.
